# N370S GC mod: qHTS Assay for Inhibitors and Activators of N370S glucocerebrosidase as a Potential Chaperone Treatment of Gaucher Disease. 330,000 compounds, 0.092% hits. Lysosomal acid glucosylceramidase (Homo sapiens), P04062. Potency, µM (series often up to 59.4 µM), inactives show at the highest dose activity change, negative = inhibition, actives largely listed as inhibitors. N370S GC spleen homogenate, 4MU-glucoside fluorescence; active = well fitted inhibition curve with a large enough effect; inconclusive = small, poorly fitted or top-dose-only effect, or effect the other way, or another doubt; inactive = no such curve, though single readings can be large or run the other way;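 note: 0% = full enzyme activity and -100% = no enzyme basal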
# Numbers without * were called inactive; ? = inconclusive; & = joins results of further samples; [ ] = dose if it differs, or a comment. Potency is the fitted concentration of half-maximal effect. These rows are one share of the data; most or all hits stand in other tables.
N370S GC mod | Structure
-1.9% | O=C(c1cc(Cl)ccc1O)N1CCN(S(=O)(=O)c2cccs2)CC1
-4.3% | CC(C)(C)c1ccccc1OCC(=O)NCCCn1ccnc1
11.6% | CCOC(=O)c1nnc(-c2ccc(C)cc2)nc1N1CCSCC1
7.2% | COc1ccc(C(=O)c2coc(-c3ccccc3C(=O)O)c2C(=O)O)cc1
15.0% | Cc1ccc(NC(=O)c2sc3nc(N4CCOCC4)c4c(c3c2N)CC(C)(C)OC4)cc1
12.8% | COc1ccc(NC(=O)CNS(=O)(=O)c2cccs2)c(OC)c1
6.9% | O=[N+]([O-])C(/C=C(\Cl)[N+](=O)[O-])=C(N1CCCCC1)N1CCCCC1
-4.1% | O=C(CCn1nc(-c2ccc(Cl)cc2)c2ccccc2c1=O)NN1CCOCC1
? | Cc1ccc(OCC(=O)N2N=C(C(F)(F)F)CC2(O)C(C)(C)C)cc1C (stereo not given)
-0.9% | O=C1CC(c2cccc(Br)c2)C2=C(COC2=O)N1 (stereo not given)
11.1% | O=C(Cn1c(CO)nc2ccccc21)Nc1ccccc1Cl
-18.6% | CCC(CC)C(=O)Nc1cccc(C(=O)N2CCCCCC2)c1
-4.3% | COc1ccc(CN2CCCC(C(=O)c3cccc(OC(C)C)c3)C2)cc1Cn1cccn1 (stereo not given)
-22.0% | OCCCNc1ncnc2sc(-c3ccccc3)cc12
-6.1% | CCn1cc(CNC(=O)c2ccc3nc(Cc4ccc(OC)cc4)oc3c2)cn1
-3.1% | Cc1ccc(NC(=O)CCC(C(=O)O)N2C(=O)c3ccccc3C2=O)cc1 (stereo not given)
-8.7% | NC(=O)c1c(N)sc2c1CCCCC2
-5.7% | Cc1cc(C(=O)NCc2nc(-c3ccccc3)no2)ccc1[N+](=O)[O-]
2.7% | CC(=O)N=c1sc2c3ccccc3ccc2n1C
2.4% | Cc1c(C)n(C(=O)CSc2nncn2C)c2ccccc12
9.7% | O=C(NCCOc1ccccc1)c1ccc2c(c1)OCO2
-4.1% | COc1ccc(-n2c(COc3ccc4ccccc4c3)nnc2SCC(=O)NCc2ccco2)cc1
? | CN(C)S(=O)(=O)c1ccc(-c2csnn2)s1
0.7% | CCCCn1c(N)c(N(CCOC)C(=O)CCCc2nc3ccccc3s2)c(=O)[nH]c1=O
-3.1% | CCCNC(=O)c1ccccc1NC(=O)c1ccccc1SC

# Among those listed so far, these contain an aryl methoxy group:
N370S GC mod | Structure
7.2% | COc1ccc(C(=O)c2coc(-c3ccccc3C(=O)O)c2C(=O)O)cc1
12.8% | COc1ccc(NC(=O)CNS(=O)(=O)c2cccs2)c(OC)c1
-4.3% | COc1ccc(CN2CCCC(C(=O)c3cccc(OC(C)C)c3)C2)cc1Cn1cccn1 (stereo not given)
-6.1% | CCn1cc(CNC(=O)c2ccc3nc(Cc4ccc(OC)cc4)oc3c2)cn1
-4.1% | COc1ccc(-n2c(COc3ccc4ccccc4c3)nnc2SCC(=O)NCc2ccco2)cc1

# Remaining list, next part:
N370S GC mod | Structure
-2.9% | Cc1ccc(-n2c(SCC(=O)OC(C)C)nnc2-c2cnccn2)cc1
-4.8% | CSc1ccccc1NC(=S)NC1CCCCC1
7.7% | Cc1cc(OCC(=O)NC(C)C)cc(C)c1Cl
-2.5% | C=C(C)C(=O)Nc1cccc(C(C)=O)c1
-2.3% | O=C(Nc1ccnn1C1CCN(Cc2c(F)cccc2Cl)CC1)C1CCCC1
-21.3% | [O-]/C(=C(\C(=S)NCc1ccccc1)[n+]1ccccc1)c1ccc(Cl)s1
-21.6% | O=C(NCC(c1ccco1)N1CCN(c2ccccc2F)CC1)C1CCCCC1 (stereo not given)
1.3% | CN=c1scc(C)n1/N=C/c1ccc2c(c1)OCO2
0.5% | CN(C1CCCCC1)S(=O)(=O)c1ccc(NC(=O)c2ccco2)cc1
-0.1% | O=C(COC(=O)Cc1c[nH]c2ccccc12)NCCc1ccccc1
3.9% | O=c1cc(Cn2nnc(-c3ccc(Cl)cc3)n2)nc2sccn12
-11.4% | COc1cc(C(=O)NCCc2ccc(F)cc2)ccc1OCC(=O)N1CCOCC1
0.6% | CC(C)(C)NC(=O)c1ccc2c(c1)N(CC(=O)N1CCN(c3ccc(F)cc3)CC1)C(=O)C(C)(C)O2
-1.4% | CCc1ccc(OCC(=O)Nc2ccc(S(=O)(=O)Nc3cc(C)on3)cc2)c(Br)c1
3.9% | NNC(=O)COc1ccccc1F
1.5% | CC(=O)O[C@H]1CSC[C@H]1NC(=O)c1ccccc1
-5.1%&0.5% | C=CC(=O)OCCOCCOCCOCCOC(=O)C=C
-3.4% | CC1CCCN(C(=S)NC2CCCC2)C1 (stereo not given)
3.6% | O=C(NCCO)c1ccc2c(c1)S(=O)(=O)c1ccccc1C2=O
-2.7% | CCc1cc2c(SCC(=O)Nc3cc(C)on3)ncnc2s1
-13.9% | CCOC(=O)C(C(=O)OCC)C(C[N+](=O)[O-])c1ccccc1 (stereo not given)
6.0% | N#CNC(=Nc1cccc(F)c1)SCc1ccccc1
0.3% | O=C(NCc1cccc(F)c1)C1CCC(=O)N(CCc2cccc(F)c2)C1 (stereo not given)
-19.1% | COc1cc(C(=O)N2CCN(C)C(C)C2)ccc1OC1CCN(C(C)=O)CC1 (stereo not given)
-1.6% | Cc1cc2nc3n(c2cc1C)CC1CC(C(=O)NCc2ccco2)N(C)C31 (stereo not given)
2.0% | CCCOc1ccc(/C=N/NC(=O)c2ccc3c(c2)OCO3)c(OCCC)c1
12.1% | COc1cccc(OCCCCCN2CCOCC2)c1
-17.2% | COc1cc(NS(=O)(=O)c2ccc(NC(=O)Cc3ccccc3)cc2)nc(OC)n1
-7.2% | CN1CCN(CCCC(=O)c2ccc(C3CCCC3)cc2)CC1
10.9% | COc1cccc(NC(=O)CSC(N)=O)c1
-17.5% | COCC(C)n1c(C)cc(C(=O)COc2ccc(C)nc2[N+](=O)[O-])c1C (stereo not given)
1.3% | Cc1sc(NC(=O)c2cc3ccccc3oc2=O)c(C(=O)OC(C)C)c1-c1ccccc1
-0.8% | Fc1ccccc1NC(=S)Nc1cccnc1
2.5% | COc1cc2[nH]c(=O)n(CCCCCC(=O)NCCCN3CCOCC3)c(=O)c2cc1OC
-13.5% | CCCCC(=O)N/N=C(\C)CC(=O)Nc1ccccc1Br
-15.6% | COCCCNc1nc2c(c(=O)[nH]c(=O)n2C)n1CC(O)COc1cccc(C)c1 (stereo not given)
7.8% | C/C(=N\NC(=O)CNC(=O)C(c1ccccc1)c1ccccc1)c1ccccc1
1.1% | CCOCCCNC(=O)C(NC(=O)Cc1cccs1)c1ccc(OC)cc1 (stereo not given)
-24.1% | COc1cccc(-n2c(CN3CCN(c4ccccn4)CC3)nc3ccc([N+](=O)[O-])cc3c2=O)c1
3.0% | Cn1cnc(S(=O)(=O)Nc2ccccc2C(=O)NCC2CC2)c1
0.7% | Cc1oncc1-c1csc(-c2ccccc2Cl)n1
3.6% | O=C(/C=C/c1ccc(Cl)cc1)N(Cc1ccccc1)C1CCS(=O)(=O)C1 (stereo not given)
7.6% | Cc1ccc(C(=O)NCC(=O)OCCCOC(=O)CNC(=O)c2ccc(C)cc2)cc1
-11.3% | COC(=O)Cc1ccc(NC(=O)c2ccc3c(c2)C(=O)N(Cc2cccnc2)C3=O)cc1
4.0% | COc1ccc(-c2csc(NC(=O)CSCc3c(C)noc3C)n2)c(OC)c1
2.8% | Cc1c(Br)c([N+](=O)[O-])nn1CC(=O)Nc1ccc(Cc2ccncc2)cc1
4.3% | COC(=O)c1c(-c2ccc(C)cc2)csc1NC(=O)Cc1ccc(OC)c(OC)c1
-21.7% | N#CCCn1cc(C(=O)Nc2cccc(C(=O)O)c2)c(-c2ccc(Cl)cc2)n1
-1.6% | CC(C)(C)c1[nH]nc2c1C(c1ccco1)C(C#N)=C(N)O2 (stereo not given)
21.1% | c1ccc2nc3c(nc2c1)c1ccccc1n3CCN1CCOCC1

# The list goes on.
N370S GC mod | Structure
-5.0% | N#Cc1nc(-c2ccc(OCc3ccccc3)cc2)oc1NCc1cccnc1
1.0% | COc1ccc(CC(=O)NC2CCSc3ccccc32)c(OC)c1 (stereo not given)
8.0% | Cc1ccc(C)c(NC(=O)c2oc(=O)c3ccccc3c2-c2ccccc2)c1
-15.6%&-6.7% | CC(C)CC(=O)Nc1ccc2ccccc2c1
9.6% | COc1ccc(-c2nc3ccccc3c(=O)n2CCOc2cccc(C)c2C)cc1
6.7% | C=C(C)c1cccc(C(C)(C)NC(=O)NCc2ccc(OC)c(OC)c2)c1
-20.5% | COC(=O)c1ccc(N)nc1
-1.4% | CCOc1ccc(C(=O)NC(=S)NCc2cccnc2)cc1
0.8% | CC(C)CN(C(=O)COC(=O)CN1C(=O)c2ccccc2C1=O)c1c(N)n(Cc2ccccc2)c(=O)[nH]c1=O
5.8% | Cc1cccc(CSc2nnc(-c3ccco3)n2C)c1
-7.5% | CC1CCN(CCCNC(=O)C2CCC(CNS(=O)(=O)c3ccccc3)CC2)CC1 (stereo not given)
8.1% | O=C1CSC(=Nc2ccccc2)N1Cc1ccccc1
10.1% | Cc1cc(=O)oc(C)c1C(=O)OC(C(=O)c1ccccc1)c1ccccc1 (stereo not given)
-8.8% | O=C(CC1C(=O)NCCN1Cc1cccc(Oc2ccccc2)c1)NCCc1ccccn1 (stereo not given)
3.1% | COc1cccc(NC(=O)c2cnc(SC)nc2)c1
-8.1% | Cc1ccc(CNC(=O)COc2ccc(S(=O)(=O)N3CCCC3)cc2)cc1
-23.3% | O=C(CCCCCn1c(=S)[nH]c2ccsc2c1=O)NC1CCCCC1
2.5% | NC(=O)[C@H]1CC2(CC(c3cccc(NC(=O)[C@H]4CCC(=O)N4)c3)=NO2)CN1C(=O)CC(c1ccccc1)c1ccccc1 (stereo not given in full)
-0.1% | COc1ccc(/C=N/Nc2ncnc3sc4c(c23)CCCC4)cc1O
8.9% | CCOC(=O)c1cnc(-n2cc(C)cn2)nc1Nc1ccccc1OC
10.4%[12.8 µM] | CCCCNC(=O)C1CC(=O)N(c2ccc(OC)cc2)C1c1ccc(OC)cc1 (stereo not given)
2.5% | O=C(CCCSc1nc2ccccc2[nH]1)Nc1ccccc1
11.3% | c1ccc(-c2nn3c(-c4ccccc4)nnc3s2)cc1
-0.6% | Fc1ccc(-c2nnc(CSc3nnc4ccccn34)o2)cc1
-0.8% | O=C(NCc1ccc2c(c1)OCO2)C1CCCN(S(=O)(=O)c2cccs2)C1 (stereo not given)

# 4 of the entries above in order of the N370S GC mod value, highest first.
Molecule	N370S GC mod
Cc1cc(=O)oc(C)c1C(=O)OC(C(=O)c1ccccc1)c1ccccc1 (stereo not given)	10.1%
O=C1CSC(=Nc2ccccc2)N1Cc1ccccc1	8.1%
COc1ccc(/C=N/Nc2ncnc3sc4c(c23)CCCC4)cc1O	-0.1%
O=C(NCc1ccc2c(c1)OCO2)C1CCCN(S(=O)(=O)c2cccs2)C1 (stereo not given)	-0.8%

# More records
N370S GC mod | Structure
-20.1% | Cc1ccc(NC(=S)NNC(=O)c2nnn(-c3ccccc3)c2C)cc1
-10.7% | Cc1ccc(-c2csc3ncn(Cc4ccc(C(=O)O)cc4)c(=O)c23)cc1C
-20.0% | O=C(NCc1ccccn1)c1ccc(OC2CCN(Cc3ccccc3)CC2)cc1
4.3% | O=C(c1ccc(C#CC2(O)CCCCC2)cc1)N1CCOCC1
5.5% | O=C(NCCc1ccc(Cl)cc1)Nc1cccc(Cl)c1
5.4% | CCn1c(SC(C)C(=O)Nc2nnc(C)s2)nnc1-c1ccco1 (stereo not given)
5.6% | Cc1cc2oc(=O)cc(CSc3nnc(C)n3N)c2cc1C(C)C
2.3% | CCOC(=O)Cc1csc(NC(=O)c2cccnc2)n1
6.6% | O=S(=O)(c1ccc(-c2csc(Nc3ccc(Br)cc3)n2)cc1)N1CCCC1
-2.0% | CCOC(=O)C1CCCN(S(=O)(=O)CCNC(=O)c2ccccc2)C1 (stereo not given)
7.6% | CC(Cc1cccnc1)NC(=O)c1ccccc1OC1CCN(S(C)(=O)=O)CC1 (stereo not given)
-0.4% | CNc1ncc(Cc2ccccc2)s1
2.5% | COc1ccc(OC)c(/C=N/NC(=O)c2cc3c(OC)c(OC)ccc3[nH]2)c1
-5.5% | COc1ccc(-c2cc(C(=O)NC3=NCCS3)c3ccccc3n2)cc1OC
-10.9% | Cc1nc2ccccn2c1C(=O)CSc1ccccc1
4.2% | CNC(=O)C(=O)Nc1ccc(C)cc1C
2.3% | Cc1ccsc1/C=N/N1CCN(c2ccccn2)CC1
-0.6% | CCOC(=O)c1cc(S(=O)(=O)NCC2CCN(Cc3cccc(C)c3)CC2)cn1C
-15.7% | Cc1[nH]c2ccc(C(=O)NCCCN(C)C3CCCCC3)cc2c1C
8.0% | CCOC(=O)COc1cc(=O)n(CC)c2ccccc12
-0.6% | COC(=O)c1cc(-c2ccc(Cl)cc2Cl)n[nH]1
-13.4% | CN(Cc1ccccn1)C(=O)C1CCC(=O)N(Cc2cccc(C(F)(F)F)c2)C1 (stereo not given)
9.3% | CCCCCc1nnc(NC(=O)C2COc3ccccc3O2)s1 (stereo not given)
-4.4% | CCS(=O)(=O)c1nc(S(=O)(=O)c2ccc(C)cc2)c(NCCCN2CCOCC2)s1
-2.9% | COc1ccc(NC2SC(=O)N(C)C2=O)cc1 (stereo not given)
28.6% | C=CCNC(=S)N/N=C/c1ccc(C(C)(C)C)cc1
3.9% | O=C(Nc1ccccc1N1CCN(C(=O)c2ccccc2)CC1)c1cccc(Cl)c1
-2.7% | CN(C)C(=O)c1nnsc1Sc1ccc(Cl)cc1
9.5% | C(=C\c1ccccc1)/CSc1nnc(-c2cnccn2)n1Cc1ccco1
-3.8% | CCOC(=O)C1(CC)NC(c2ccco2)C2C(=O)N(CC)C(=O)C21 (stereo not given)
-9.7% | O=C(COc1coc(CN2CCN(c3ccccc3)CC2)cc1=O)NC1CCCCC1
12.7% | CNCCc1ccccn1
-4.2% | CCOC(=O)c1ccc(NC(=O)c2cn(CCC#N)nc2-c2ccc3c(c2)OCCO3)cc1
1.8% | Cc1ccccc1NC(=S)N1CCCCCC1
-13.7%&-7.0% | C=CC(C)(O)CCCC(C)CCCC(C)CCCC(C)C (stereo not given)

# Assay outcomes from PubChem BioAssay.
